# SENP6 block – inhibitors of human SENP6 protease | Recombinant SENP6 catalytic domain, aminoluciferin luminescence | inhibition, % at 10 µM | 330,000 tested, 1.8% active | AID 2599;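 active means inhibition above about 50% at the single tested dose, limit read from the data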;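 further: plate controls were DMSO wells with enzyme for no effect and DMSO wells lacking enzyme for full effect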
# SENP8 inh – blocks the human protease SENP8; purified SENP8, Z-RLRGG-aminoluciferin cleavage, luminescence; inhibition, % at 10 µM; 330,000 tested, 1.2% active; AID 2540; in the data active means inhibition above about 50%
# SENP7 inh – inhibitors of human SENP7 protease; recombinant SENP7, Z-RLRGG-aminoluciferin luminescence, 40 min; AID 434973; Q9BQF6; 330,000 tested, 1.5% active; inhibition, % at 5 µM;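 active means inhibition above about 50% at the single test dose, limit read from the data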;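 further: plate controls were DMSO with enzyme for no effect and no enzyme buffer wells for full effect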
# Target sequence (Q9BQF6 706-1050 limits assumed): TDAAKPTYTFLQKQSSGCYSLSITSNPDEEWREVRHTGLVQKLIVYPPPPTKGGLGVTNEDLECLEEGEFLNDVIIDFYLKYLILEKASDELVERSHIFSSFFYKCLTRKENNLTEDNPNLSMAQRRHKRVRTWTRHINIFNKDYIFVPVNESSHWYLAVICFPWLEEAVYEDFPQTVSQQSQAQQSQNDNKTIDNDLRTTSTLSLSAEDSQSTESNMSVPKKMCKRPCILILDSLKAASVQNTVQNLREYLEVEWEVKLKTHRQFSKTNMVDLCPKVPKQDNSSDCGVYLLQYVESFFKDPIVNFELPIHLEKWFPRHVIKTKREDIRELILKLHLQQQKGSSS
# SENP1 inh – blocks the human SENP1 SUMO protease catalytic domain; Q9P0U3; recombinant SENP1 catalytic domain, CyPet-SUMO1-YPet FRET cleavage; inhibition, % at 10 µM; 360,000 tested, 0.21% active; AID 624204;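 active means inhibition at least 30% at 10 µM, raw YFP signal under a set limit, fluorescence ratio 0.5 to 1.5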;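 further: 0% = enzyme with DMSO and 100% = no enzyme wells; some results filed as inactive read as strong as hits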
#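 material = recombinant human SENP1 catalytic domain, His6-tagged | quantity = 20 pM enzyme | reagent = 25 nM SUMO1 FRET substrate | compound dosing = 10 µM single point, 0.5% DMSO | timing = 50 min enzyme reaction, room temperature, light-protected | detection = FRET, CFP and YFP emission | control set = no-enzyme low, enzyme-DMSO high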
# HKDC1 inhibitor – inhibitors of human hexokinase HKDC1; recombinant HKDC1, G6PDH/diaphorase resazurin coupled fluorescence; inhibition, % at 20 µM; 340,000 tested, 0.16% active;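 active means inhibition above about 35% when tested at 20 µM, limit read from the data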;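 further: plate controls were DMSO wells with enzyme for no effect and DMSO wells lacking enzyme for full effect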
#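 Test system: recombinant HKDC1 (HK5) hexokinase enzyme, produced in-house; Amount: enzyme 5 µg/mL final; Buffer or medium: Tris pH 8.0 buffer with MgCl2, Tween-20, BSA, BME; Reagent: glucose and ATP substrates; Doses: 20 µM test compound, 1% DMSO; Incubation: 90 min reaction incubation at room temperature, dark; Detection: resorufin fluorescence at 613 nm.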
# Starred values were filed as active, the others as inactive; . = not tested or not shown. Some of the compounds tested (hit frequency here may not be typical).
cpd	Structure	SENP6 block	SENP8 inh	SENP7 inh
1	O=C1NC[C@H](c2ccccc2)OC(=O)[C@@H](Cc2ccc(F)cc2)CC/C=C/C[C@@H]1CC(=O)N(CCO)Cc1ccccc1	2	17	3
2	C#Cc1cccc(N2C(=O)C3C4C=CC(C3C2=O)C2C(=O)N(c3cccc(C#C)c3)C(=O)C42)c1 (stereo not drawn)	.	.	.
3	CC(=O)c1cn(S(=O)(=O)c2ccccc2)c2ccccc12	-11	-12	-7
4	CC(N)C(=O)NC(CO)C(O)C(N)C=O (stereo not drawn)	.	.	.
5	COc1cc(/C=C/C(=O)/C=C(O)/C=C/c2ccc(O)c(OC)c2)ccc1O	-20	5	5
6	COc1cccc(-c2cc(C(F)(F)F)n3ncc(C(=O)NCC4CCCO4)c3n2)c1 (stereo not drawn)	-3	-1	-11
7	O=C(Cn1c(C(=O)c2ccccc2)nc2ccccc21)c1ccc(Cl)cc1	.	.	.
8	O=C1NN(c2ccccc2)C(=O)/C1=C/c1ccc(Sc2ccc(Cl)cc2)o1	10	8	-1
9	O=c1c(Cl)c(O)ccn1C1OC(CO)C(O)C1O (stereo not drawn)	.	.	.
10	C=C(CN(C)C)C(=O)c1ccc2c(c1)OCO2	.	.	.

cpd	SENP1 inh	HKDC1 inhibitor
1	1	1
2	-1	-5
3	-1	-10
4	0	1
5	-28	-2
6	-20	4
7	1	2
8	-19	42*
9	0	-5
10	1	0

# In another format: entries from further up
no.	SENP6 block	SENP8 inh	SENP7 inh	SENP1 inh	HKDC1 inhibitor	Structure
1	2	17	3	1	1	O=C1NC[C@H](c2ccccc2)OC(=O)[C@@H](Cc2ccc(F)cc2)CC/C=C/C[C@@H]1CC(=O)N(CCO)Cc1ccccc1
2	.	.	.	-1	-5	C#Cc1cccc(N2C(=O)C3C4C=CC(C3C2=O)C2C(=O)N(c3cccc(C#C)c3)C(=O)C42)c1 (stereo not drawn)
3	-11	-12	-7	-1	-10	CC(=O)c1cn(S(=O)(=O)c2ccccc2)c2ccccc12
4	.	.	.	0	1	CC(N)C(=O)NC(CO)C(O)C(N)C=O (stereo not drawn)
5	-20	5	5	-28	-2	COc1cc(/C=C/C(=O)/C=C(O)/C=C/c2ccc(O)c(OC)c2)ccc1O

# 2 records picked at random from the list so far, as already listed:
cpd	Structure	SENP6 block	SENP8 inh	SENP7 inh
1	O=C1NC[C@H](c2ccccc2)OC(=O)[C@@H](Cc2ccc(F)cc2)CC/C=C/C[C@@H]1CC(=O)N(CCO)Cc1ccccc1	2	17	3
4	CC(N)C(=O)NC(CO)C(O)C(N)C=O (stereo not drawn)	.	.	.

cpd	SENP1 inh	HKDC1 inhibitor
1	1	1
4	0	1

# Compound activity (PubChem BioAssay)
